Screening data from PubChem.
Vaccinia mCherry – inhibitors of vaccinia virus infection (mCherry reporter signal) | Vaccinia virus mCherry reporter infection, fluorescence; about a quarter of the inactives have no number | Potency, µM (top dose mostly 36.5 µM), for the others: top-dose activity change, negative = inhibition, actives largely listed as inhibitors | 310,000 compounds, 0.63% hits; active = well fitted inhibition curve with a large enough effect; inconclusive = small, poorly fitted or top-dose-only effect; inactive = no such curve, though single readings can be large or run the other way; tested in A549 cells; further: nearly all actives have a fitted effect of over 35% in size; inactives centre near -10
Vaccinia Venus – vaccinia inhibition (Venus reporter); 330,000 compounds, 0.46% hits; Potency, µM (highest dose often 36.5 µM), for inactives: at the highest dose activity change, negative = inhibition, hits mostly inhibitors; Vaccinia virus Venus reporter expression, fluorescence; active means well fitted inhibition curve with a large enough effect; inconclusive means small, poorly fitted or top-dose-only effect; inactive means no such curve, though single readings can be large or run the other way; tested in A549 cells; further: nearly all actives have a fitted effect of over 30% in size; inactives centre near -10
* hit, by the source's call; i = inactive; ? = inconclusive; nt = not tested or not shown; [ ] = remark or other dose. On the % scale 0 is the no-effect control and ±100 the full control effect; potency means the concentration at half of the fitted maximal effect.

SMILES | Vaccinia mCherry | Vaccinia Venus
C=CCNS(=O)(=O)NC(=O)C1=C(N2CCCC2)COC1=O | -12% | -8%
CCc1nc(C)cn1S(=O)(=O)c1ccc(Cl)c(Cl)c1OC | -13%[7.34 µM] | -15%[7.34 µM]
CC(=O)Nc1ccccc1OCc1cnc(Cl)s1 | i | -11%
CCC(=O)N(C)C[C@@H]1Oc2cc(Br)ccc2S(=O)(=O)N([C@@H](C)CO)C[C@@H]1C | i | -11%
Cc1cccc(CCn2c(=O)c3ccccc3n(Cc3cccc(F)c3)c2=O)c1 | -13% | -4%
Cc1ccc(C(=O)N2CCCCC2)cc1NC(=O)c1nsc2ccccc12 | -7% | -9%
Cc1cccc(C)c1NC(=O)CN1C(=O)c2ccccc2Sc2ncccc21 | -14% | -10%
O=C(NCCc1ccccc1)c1ccc(-c2cccnc2)c2ccoc12 | 22% | -16%
CCOc1ccc(C(=O)NCc2nc(-c3ccc(Cl)cc3)no2)cc1OCC | -21% | -2%
C[C@H](C(=O)CC(=O)OC(C)(C)C)[C@H](O)c1ccccc1 | -13% | -7%
O=C(/C=C/c1ccc([N+](=O)[O-])cc1)N(c1ccccn1)C1CCCCC1 | -9% | 1%
COc1cc2c(cc1OC)C(c1ccc(O)cc1)NCC2 (centres undefined) | i | -10%
Cc1cccc(N(CC(=O)NC(C)(C)C)C(=O)CNC(=O)c2cccs2)c1 | -5% | -8%
CCOc1ccc(C(=O)CCC(=O)Nc2ncccc2O)cc1 | -23% | -8%
O=C(NCCc1cccs1)C1CC(c2ccccc2F)=NO1 (centres undefined) | i | -13%
COCCNC(=O)C(c1ccccc1F)N(C(=O)C(=O)NC1CCCC1)C1CCCCC1 (centres undefined) | i | -17%
CC1CCc2sc(C(=O)NNC(=S)NC3CC3)cc2C1 (centres undefined) | -2% | -4%
Cc1ccc(NC(=O)Nc2nc(-c3ccc(C)s3)cs2)cc1 | nt | ?
CC(C)(C)C(C(=O)NCc1ccccc1)N1CCN(C(=O)C2CCCO2)CC1 (centres undefined) | -6% | -3%
O=C(CN1C(=O)NC2(CCCC2)C1=O)Nc1cccc(C(F)(F)F)c1 | i | -6%
O=C(COc1ccccc1Cl)OCc1cc(=O)n2nc(-c3cccs3)sc2n1 | -9% | 1%
CC1CCN(c2c(NCC3CCC(C(=O)N4CCc5ccccc5C4)CC3)c(=O)c2=O)CC1 (centres undefined) | i | -14%
COC(=O)C1=C(C)N(CCC2=CCCCC2)C(=O)C1 | -1% | -15%
CCc1n[nH]c(=S)n1/N=C/c1cc(Br)c(OC)cc1OC | -12% | -4%
CCOc1ccc(S(=O)(=O)NCCSCc2ccco2)cc1 | -11% | -16%

7 records picked at random from those above, as already listed:
SMILES | Vaccinia mCherry | Vaccinia Venus
Cc1cccc(N(CC(=O)NC(C)(C)C)C(=O)CNC(=O)c2cccs2)c1 | -5% | -8%
CCC(=O)N(C)C[C@@H]1Oc2cc(Br)ccc2S(=O)(=O)N([C@@H](C)CO)C[C@@H]1C | i | -11%
CC(C)(C)C(C(=O)NCc1ccccc1)N1CCN(C(=O)C2CCCO2)CC1 (centres undefined) | -6% | -3%
CC1CCN(c2c(NCC3CCC(C(=O)N4CCc5ccccc5C4)CC3)c(=O)c2=O)CC1 (centres undefined) | i | -14%
C=CCNS(=O)(=O)NC(=O)C1=C(N2CCCC2)COC1=O | -12% | -8%
COCCNC(=O)C(c1ccccc1F)N(C(=O)C(=O)NC1CCCC1)C1CCCCC1 (centres undefined) | i | -17%
O=C(CN1C(=O)NC2(CCCC2)C1=O)Nc1cccc(C(F)(F)F)c1 | i | -6%

Record cards, as listed above.
Results for `O=C(NCCc1ccccc1)c1ccc(-c2cccnc2)c2ccoc12` = Vaccinia mCherry = 22%; Vaccinia Venus = -16%
Results for `Cc1cccc(CCn2c(=O)c3ccccc3n(Cc3cccc(F)c3)c2=O)c1` = Vaccinia mCherry = -13%; Vaccinia Venus = -4%

New compounds follow:
SMILES | Vaccinia mCherry | Vaccinia Venus
CC(=O)O[C@H]1CC[C@@]2(C)C(=CC[C@@H]3[C@@H]2CC[C@]2(C)C(=O)CC[C@@H]32)C1 | i | -13%
Oc1ccc(C=NNC(=S)Nc2ccccc2)nc1 | ? | ?
CCCCCCCCCc1conc1C(=O)/C=C/c1ccco1 | i | 9%
CCC(CC)C(=O)NCCc1cc2cc(C)c(C)cc2[nH]c1=O | 22% | 0%
O=C(Cn1c(SCC(=O)NC2CCCC2)nnc1-c1ccncc1)Nc1ccc2c(c1)OCO2 | -7% | 5%
CC(NC(=O)COC(=O)c1ccccc1SCC(=O)N1CCCC1)c1ccccc1 (centres undefined) | -1% | -15%
Cc1ccc(C)c(C(O)c2ncc(-c3cccc(F)c3)[nH]2)c1 (centres undefined) | -13% | -4%
O=C(Nc1cccc(C(F)(F)F)c1)c1ccc2nc(-c3ccco3)c(-c3ccco3)nc2c1 | -12% | -3%
CCc1nonc1NC(=O)c1oc2ccc(Br)cc2c1C | -19% | -15%
COCCNC(=S)N/N=C(\C)c1cc2ccccc2o1 | -21% | -14%
C[C@H](NS(=O)(=O)c1ccccc1)C(=O)OCC(=O)NC(=O)Nc1ccc2c(c1)OCCO2 | -11% | -6%
COc1ccc(NC(=O)C2CC(=O)N/C(=N/N=C/c3ccco3)S2)cc1 (centres undefined) | i | -8%
COc1ccc2c(c1)c(=O)oc1cc(OCC(=O)NCC3CCC(C(=O)O)CC3)ccc12 (centres undefined) | -13% | -17%
O=C(COC(=O)c1ccc(CO)cc1)Nc1ccc(OC(F)F)cc1 | 4% | 5%
COC(=O)C1=C(c2ccc(OCc3ccccc3)cc2)C[C@@H]2CC[C@H]1N2C(=O)NCc1cccc(F)c1 | -15% | ?
COc1cccc(NC(=O)CCC(=O)Nc2cc(OC)c(NC(=O)c3cccs3)cc2OC)c1 | i | -25%
COc1cc(OC)cc(-c2nc(=S)n3ccsc3n2)c1 | -10% | -18%
CC[C@H](C)C(N)c1cn([C@@H](CC(N)=O)C(=O)N2CCNCC2)nn1 (some centres undefined) | -17% | -4%
CCOCCCNC(=O)c1cc(-c2ccc(Br)s2)nc2ccccc12 | -11% | 0%
O=C(NNC(=S)Nc1ccc(F)cc1)c1cccc([N+](=O)[O-])c1 | -14% | 1%
O=[N+]([O-])c1ccc(-n2ccnc2)cc1 | -8%[7.34 µM] | -7%[7.34 µM]
COc1ccc(N2C(=O)C3C(C2=O)C2C=CC3C23CC3)c([N+](=O)[O-])c1 (centres undefined) | i | -20%
COc1ccc(OC(C)C(=O)NC2CCCCCC2)cc1 (centres undefined) | i | -7%
Cc1ccc(C)c(N/N=C2\CCCNC2=O)c1 | -19% | -10%
O=C(Nc1ccc(S(=O)(=O)Nc2ncccn2)cc1)c1nn(Cc2ccccc2)c(=O)c2ccccc12 | -10% | -15%

A second format for part of the listing above.
SMILES	Vaccinia mCherry	Vaccinia Venus
COc1ccc(NC(=O)C2CC(=O)N/C(=N/N=C/c3ccco3)S2)cc1 (centres undefined)	i	-8%
O=C(Nc1ccc(S(=O)(=O)Nc2ncccn2)cc1)c1nn(Cc2ccccc2)c(=O)c2ccccc12	-10%	-15%
COC(=O)C1=C(c2ccc(OCc3ccccc3)cc2)C[C@@H]2CC[C@H]1N2C(=O)NCc1cccc(F)c1	-15%	?

Later entries
SMILES | Vaccinia mCherry | Vaccinia Venus
COc1ccc(-c2nc(CN3CCN(c4ncccn4)CC3)c(C)o2)cc1C | -28% | -11%
C/C(=N/O)c1no[n+]([O-])c1/C(C)=N\O | -15% | -13%
COc1cccc(-c2cc(C(=O)Nc3ccc([N+](=O)[O-])cn3)c3ccccc3n2)c1 | -23% | -6%
COC(=O)CN1C(=O)C(O)(c2c(C)[nH]c3ccccc23)c2ccccc21 (centres undefined) | -5% | 2%
Cc1ccsc1C(=O)C1CCCN(Cc2ccc(-n3cccn3)cc2)C1 (centres undefined) | -17% | -13%
COc1ccc(O)c(/C=N/NC(=O)CCC(=O)Nc2cccc(C)c2)c1 | ? | -21%
CCOc1ccc(-c2cccc(NS(=O)(=O)c3cccc([N+](=O)[O-])c3)c2)nn1 | -12% | -6%
O=C(CCc1ccccc1)Nc1nc2n(n1)C(c1ccccc1)CC(=O)N2 (centres undefined) | i[1.46 µM] | -8%
CCC(c1nc2ccccc2[nH]1)n1c(-c2ccnc(Cl)c2)nc2ccccc21 (centres undefined) | -7% | -7%
O=C(CCNC(=O)c1ccco1)Nc1ccc(N2CCOCC2)cc1 | 11% | 4%
NNc1n[nH]c(=S)n1N | i | -4%
CCC(c1nc2ccccc2[nH]1)n1c(=O)c(-c2ccco2)nc2ccccc21 (centres undefined) | ? | 6%
O=C(CSc1nc2c(c(=O)[nH]1)CCC2)Nc1ccc(F)cc1 | 10% | -7%
CCN1CCN(C(=O)C2CCCN(c3ncnc4c3nc3n4CCCCC3)C2)CC1 (centres undefined) | -15% | -14%
COc1ccc(C/C(N)=N/n2cnnc2)cc1Cl | nt | -19%
COc1ccc(S(=O)(=O)Nc2ccccc2C(=O)Nc2nc(-c3ccc(F)cc3)cs2)cc1OC | ? | ?
N#Cc1ccc(-n2nccc2-c2cnc3n(c2=O)CCS3)cc1 | 1% | -2%
CC(CCc1ccccc1)NC(=O)CN1CCN(Cc2ccc(Cl)cc2)C1=O (centres undefined) | -20% | -28%
COC(=O)c1ccc(C2/C(=C(/O)c3ccc4c(c3)CC(C)O4)C(=O)C(=O)N2Cc2cccnc2)cc1 (centres undefined) | -6%[7.34 µM] | -18%[7.34 µM]
Cc1ccc(NC(=O)CNC(C)c2ccccc2)cc1 (centres undefined) | i | -19%
Cc1c(C(=O)Nc2nccs2)oc2ccccc12 | 13% | -1%
COc1ccc(-c2csc(NC(=O)CN3C(=O)C4CCCCC4C3=O)n2)cc1OC (centres undefined) | -16% | -10%
COc1ccc(C(=O)NNC2CC(=O)N(Cc3ccccc3)C2=O)cc1OC (centres undefined) | -9% | -20%
CCCSc1cc(Cl)nc(N)n1 | i | -13%
COc1ccc(OCc2ccc(-c3nc(C#N)c(NC(C)c4ccccc4)o3)o2)cc1 (centres undefined) | -22% | -25%
(list continues)
SMILES | Vaccinia mCherry | Vaccinia Venus
CN(C)S(=O)(=O)c1ccc(C(=O)Nc2ccc3ncccc3c2)cc1 | -3% | -11%
Cc1ccc(S(=O)(=O)N2CCOCC2)cc1C(=O)NCCc1ccc(Cl)cc1 | i | -4%
O=S(=O)(c1ccc(NC(=S)NC23CC4CC(CC(C4)C2)C3)cc1)N1CCCCC1 | -25% | ?
O=C(COc1ccc(F)cc1)N(Cc1ccc(Cl)cc1)C1CCS(=O)(=O)C1 (centres undefined) | -3%[7.34 µM] | -11%[7.34 µM]
NC(=O)c1ccc(-n2nnnc2Oc2ccccc2)cc1 | ? | -8%
CC1(c2nc3ccccc3[nH]2)c2ccccc2C(=O)N1Cc1ccccn1 (centres undefined) | 1% | -1%
CC(C)C12CN3CC(C(C)C)(CN(C1)C3c1ccc(Cl)cc1)C2=O (centres undefined) | -4% | 5%
O=C(COc1ccccc1[N+](=O)[O-])N1CCC(Cc2ccccc2)CC1 | 8% | -4%
Cc1ccc(N2C(=O)CSC23C(=O)Nc2ccccc23)cc1F (centres undefined) | 3% | 0%
Cc1ccc(CNC(=S)Nc2ccc3c(c2)c(=O)n(C)n3Cc2cccc(C(F)(F)F)c2)cc1 | 9% | -5%
CCOC(=O)N1CCC(NC(=O)c2ccc(CS(=O)c3cccc(Cl)c3)o2)CC1 (centres undefined) | 2%[7.34 µM] | 15%[7.34 µM]
O=C(Oc1ccc(NC2=NS(=O)(=O)c3ccccc32)cc1)c1cccnc1 | i | -3%
Cn1cc(C(=O)NCc2ccccc2)c(=O)c2cc(S(=O)(=O)N3CCOCC3)ccc21 | 1% | 2%
O=C(NCc1ccc(Cl)cc1)c1cnn2ccccc12 | i | -21%
COc1cc(NC(=O)C2CCN(S(=O)(=O)c3ccc4c(c3)CCCC(=O)N4)CC2)cc(OC)c1 | 0% | 4%
O=C(Cc1cccc2ccccc12)Nc1nnc(-c2cccc([N+](=O)[O-])c2)s1 | 6% | -13%
CC(=O)N1CCC(=NNc2ncc(C(F)(F)F)cc2Cl)CC1 | i | -12%
CN1C(C(=O)Nc2ccc(F)cc2F)=CC(c2ccc3c(c2)OCO3)=NS1(=O)=O | 5% | -1%
COc1ccccc1C(=O)NCCC(=O)N1CCN(c2ccc(C(F)(F)F)cn2)CC1 | -10% | -10%
CCOC(=O)c1cc(C)n(CC2CCC(C(=O)Nc3cccc(Cl)c3)CC2)c1C (centres undefined) | -18% | -23%
COc1ccc(-c2nnc3ccc(SC(C)C)nn23)cc1OC | ? | -30%
O=C(CN(CC1CCCO1)C(=O)CNS(=O)(=O)c1ccc(Cl)cc1)NCc1ccc(F)cc1 (centres undefined) | -15% | -11%
CCCSc1ncc(Cl)c(C(=O)Nc2nc3ccc(C)cc3s2)n1 | -17% | -8%
Cn1cc(S(=O)(=O)N2CCCCCC2)cc1C(=O)NCc1ccc(Cl)cc1 | -17% | -20%
Cn1nc(SCc2ccccc2)c(=O)[nH]c1=O | -4% | -7%
COc1ccc(S(=O)(=O)Nc2cc3c4c(c2)CCN4C(=O)CC3)cc1 | i | -8%

Quoted from the listing.
`COc1ccc(-c2csc(NC(=O)CN3C(=O)C4CCCCC4C3=O)n2)cc1OC` (centres undefined) in Vaccinia mCherry = -16%
`CC1(c2nc3ccccc3[nH]2)c2ccccc2C(=O)N1Cc1ccccn1` (centres undefined) in Vaccinia mCherry = 1%
`CC1CCN(c2c(NCC3CCC(C(=O)N4CCc5ccccc5C4)CC3)c(=O)c2=O)CC1` (centres undefined) in Vaccinia Venus = -14%
`Cc1ccc(C)c(C(O)c2ncc(-c3cccc(F)c3)[nH]2)c1` (centres undefined) in Vaccinia Venus = -4%
`COc1cc(OC)cc(-c2nc(=S)n3ccsc3n2)c1` in Vaccinia mCherry = -10%
